Assay outcomes (PubChem)
CSC inhib: cancer stem cell inhibition. cancer stem cell-like cells viability, luminescence. inhibition, % at 7.5 µM. 300,000 compounds, 1.1% hits;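 active = mean at 75% or more and at least half the replicates too; inconclusive = mean and replicates disagree; tested in HMLE shEcad cells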;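 note: 0% = median of negative and 100% = median of positive control wells; the first replicate is given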
PABP FP inh: blocks human PABP binding to poly(A) RNA | P11940 | fluorescence polarization | inhibition, % at 35 µM | 290,000 compounds, 1% hits | AID 2014;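 active = 50% or more with normal probe brightness, or confirmed in later tests; inconclusive = above 50% with abnormal brightness, or retests that disagree; inactive = below 50% or failed in later tests; about a fifth of its hits are not listed in these tables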;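 note: calls also rest on retests at 20 µM and on dose response follow-up; controls were probe without protein and protein plus probe with vehicle; some compounds called inactive have numbers as strong as hits; many hits fall short of the cut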
Target sequence (P11940 whole entry, looked up): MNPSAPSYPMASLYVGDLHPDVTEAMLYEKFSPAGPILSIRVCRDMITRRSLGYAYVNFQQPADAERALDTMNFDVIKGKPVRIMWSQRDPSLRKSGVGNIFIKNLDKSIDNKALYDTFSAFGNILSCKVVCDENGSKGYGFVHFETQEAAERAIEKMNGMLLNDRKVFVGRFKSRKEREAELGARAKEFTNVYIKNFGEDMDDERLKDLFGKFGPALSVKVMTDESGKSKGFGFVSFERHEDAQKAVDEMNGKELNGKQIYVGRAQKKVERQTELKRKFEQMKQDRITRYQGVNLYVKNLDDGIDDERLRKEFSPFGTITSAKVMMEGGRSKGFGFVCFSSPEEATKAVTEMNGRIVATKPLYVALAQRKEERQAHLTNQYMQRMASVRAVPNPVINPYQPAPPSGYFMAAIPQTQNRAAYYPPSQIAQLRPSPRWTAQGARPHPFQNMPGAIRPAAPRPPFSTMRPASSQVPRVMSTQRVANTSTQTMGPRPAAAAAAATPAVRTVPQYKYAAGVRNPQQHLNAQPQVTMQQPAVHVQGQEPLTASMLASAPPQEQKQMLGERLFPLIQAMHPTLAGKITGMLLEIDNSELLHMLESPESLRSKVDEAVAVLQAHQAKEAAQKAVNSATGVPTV
Yeast UUG start: modulators of start codon recognition fidelity in yeast | S. cerevisiae UUG-firefly luciferase reporter, luminescence/redox ratio | activity score, % at 18.7 µM | 350,000 compounds, 0.13% hits;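 active = replicate mean at a twofold rise or more, about +100% in these data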;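 note: firefly luciferase made from a UUG start codon reports start codon fidelity; reporter light over untreated wells divided by growth signal over untreated wells; some hits fall short of that in this replicate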
Rce1 inhib: yeast Ras-converting enzyme inhibition | Q03530 | yeast membranes, quenched prenylated peptide cleavage fluorescence | calls only | 290,000 compounds, 0.27% hits;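 active = fall in fluorescence gain of 50% or more versus controls, with final raw signal at or below 3038400; inconclusive = same 50% fall but final raw signal above 3038400; inactive = fall in fluorescence gain under 50%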;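 note: plate controls were neutral control wells for no effect and wells lacking membranes for full effect; tested at 10 µM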
Target sequence (Q03530 whole entry, looked up): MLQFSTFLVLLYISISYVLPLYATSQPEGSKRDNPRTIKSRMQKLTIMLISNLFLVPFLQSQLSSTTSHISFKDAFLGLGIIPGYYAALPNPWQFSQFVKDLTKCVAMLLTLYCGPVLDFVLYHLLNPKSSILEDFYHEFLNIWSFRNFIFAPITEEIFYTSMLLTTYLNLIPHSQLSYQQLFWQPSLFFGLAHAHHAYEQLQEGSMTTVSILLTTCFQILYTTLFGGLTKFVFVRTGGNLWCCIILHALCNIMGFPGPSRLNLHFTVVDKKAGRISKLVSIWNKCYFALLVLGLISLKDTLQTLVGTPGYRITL
Env fusion inh: HIV envelope-mediated fusion inhibition | 360,000 compounds, 1.1% hits | inhibition, % at 12.3 µM | HeLa-JRFL Env/CEM21 cell fusion, luciferase;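 active = mean replicate inhibition score of at least 50 and every replicate individually at or above 50; inconclusive = only one of the two criteria met; inactive = mean below 50 and not all replicates reaching 50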;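 note: 0% = plate neutral controls and 100% = maraviroc near 300 nM; one replicate is shown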
MT1-MMP act inh: inhibitors of human MT1-MMP activation | HT1080 RFP-PRO-GFP cells, GFP/RFP ratio fluorescence, overnight; percent of plate control window, DMSO zero | GFP/RFP ratio change, % at 20 µM | 360,000 compounds, 0.061% hits | AID 651647;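 active = GFP/RFP ratio change of at least 30% with cell ATP level not reduced by more than half and red fluorescence within 50% of control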; note: strong numbers were not always called active
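Assay system: HT1080 RFP-PRO-GFP cells | Dosing: 20 µM single dose, 1% DMSO | Incubation: Cells overnight before dosing, compound overnight, 37 °C, 5% CO2 | Evaluation: GFP/RFP fluorescence ratio | Control set: DMSO-only wells and HT1080 RFP-L50D-GFP cell wells as references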
eIF4H inh: inhibitors of RNA binding by human eIF4H; inhibition, % at 35 µM; Q15056; eIF4H fluorescence polarization binding assay; 290,000 compounds, 0.94% hits;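 active = 50% or more with normal probe brightness, or confirmed in later tests; inconclusive = above 50% with abnormal brightness, or retests that disagree; inactive = below 50% or failed in later tests; about a fifth of its hits are not listed in these tables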;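 note: calls also rest on retests at 20 µM and on dose response follow-up; 0% = protein and probe with vehicle and 100% = probe without protein; strong numbers were not always called active; many hits fall short of the cut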
MT1-MMP act inh RFP: second read-out of MT1-MMP act inh, no call of its own (marks repeat the call); RFP signal change, %; measured here: RFP expression control read;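 0 = vehicle wells; hits needed this value within 50% of zero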
Active calls of the source: *; i = inactive; ? = inconclusive; . = not tested or not shown.

The line under a structure holds: Yeast UUG start, MT1-MMP act inh RFP, Rce1 inhib, PABP FP inh, eIF4H inh, MT1-MMP act inh, Env fusion inh, CSC inhib
1. COc1ccc(-c2cc(C(=O)OCC(=O)c3ccc(C)c([N+](=O)[O-])c3)c3ccccc3n2)cc1
→ -5, 5, i, -13, -6, 7, -33, 11
2. CCOC(=O)C1=C(C)N(CCCC(=O)O)C(=O)NC1c1ccc(Br)cc1 (configuration not stated)
→ ., ., i, ., ., ., -6, 19
3. CC1CCN(S(=O)(=O)N2CCC(C(=O)N3CCC(N(C)CC4CCCO4)CC3)CC2)CC1 (configuration not stated)
→ 8, 6, ., 11, -1, -3, -13, -10
4. CC(=O)Nc1ccc(NC(=O)c2cc(=O)c3cc(C)c(C)cc3o2)cc1
→ -12, -2, i, -15, -2, -2, 6, -7
5. Cc1ccc(-n2nc3c(c2NC(=O)c2ccccc2)CS(=O)(=O)C3)cc1C
→ -1, 0, i, -4, -13, 0, -16, -5
6. N#Cc1c(-c2ccco2)nc(SCC(=O)Nc2cccc(Cl)c2)[nH]c1=O
→ 3, 5, ., 37, 15, -3, ., -2
7. COc1ccc(C(Sc2ccccc2)c2ccccc2)cc1OC (configuration not stated)
→ -12, -5, i, ., ., -3, -6, 1
8. NC(=O)CC(NC(=O)Cc1ccc(Br)cc1)c1ccc(NCCc2cccc(F)c2)c([N+](=O)[O-])c1 (configuration not stated)
→ -9, -2, i, -16, 5, 5, 39, -10
9. O=c1oc(/C=C/c2ccc([N+](=O)[O-])s2)nc2ccccc12
→ -10, 2, i, 98*, 97*, -27, ., 12
10. CC1=NN(C(=O)c2csc(C(C)C)c2)C(O)(C(F)(F)F)C1 (configuration not stated)
→ ., 1, i, 5, 2, -5, ., -8
11. COc1ccc(CC(=O)NC(CC(=O)O)c2cccc([N+](=O)[O-])c2)cc1 (configuration not stated)
→ -16, -2, i, -2, 4, -9, -23, -1
12. COc1cccc(NC(=O)CN(C)C(=O)/C=C/c2cn(-c3ccccc3)nc2-c2cccs2)c1
→ -18, -4, ., ., ., 0, 12, .
13. CCCCC(=O)Nc1cc(OC)c(NC(=S)NC)cc1OC
→ ., 0, i, -5, -6, 0, -5, 6
14. CCOC(=O)Cn1c(CN2CC(C)OC(C)C2)nc2c1c(=O)n(C)c(=O)n2C (configuration not stated)
→ -6, 12, i, 12, 5, 10, 16, 0
15. COCCCNC(=O)CCCN1C(=O)c2cccnc2Sc2ccccc21
→ 2, 8, i, 6, 3, 0, 11, 11
16. Cc1ccc(CN2CCN(/N=C/c3ccccc3)CC2)cc1
→ ., 0, i, -4, 4, -1, 0, 10
17. CCN(CC)CCN(C(=O)CCS(=O)(=O)c1ccccc1)c1nc2cc(C)cc(C)c2s1
→ 12, 1, i, -7, -15, -2, ., -2
18. CC1CCCN(CC(O)COCC2COc3ccccc3O2)C1 (configuration not stated)
→ -3, 3, i, 0, -2, 0, ., 33
19. O=C(NCCC1CCCCN1S(=O)(=O)c1ccc(F)cc1)C(=O)NC1CC1 (configuration not stated)
→ 18, 1, i, ., ., -3, -3, -8
20. O=C(CSc1nc2ccc(Nc3nc(N4CCOCC4)nc(N4CCOCC4)n3)cc2s1)Nc1ccccc1F
→ -2, -1, i, -7, -8, 1, 4, -4
21. CS(=O)(=O)C1=NN2C(=N)/C(=C\c3ccc(OCCOc4ccccc4)cc3)C(=O)N=C2S1
→ -11, -1, i, 17, 16, 2, ., 15
22. COc1ccccc1NC(=O)Nc1nnc(Cc2ccc(F)cc2)s1
→ -5, 2, i, -15, -10, 5, 6, 59
23. COc1cc(CNC23CC4CC(CC(C4)C2)C3)ccc1OCc1ccccc1
→ ., 7, i, -15, -1, 3, -75, 43
24. C=CCc1cc(Cl)ccc1OCCn1ccnc1
→ -27, -1, i, 6, 0, 2, 2, 9
25. COc1ccc(/C=C\c2nc(=O)c3ccccc3o2)cc1
→ 1, -4, i, -14, 1, 0, -44, .
26. O=C(CN1C(=O)C(=O)N(CCC2=CCCCC2)C1=O)Nc1ccc(F)cc1F
→ 7, 4, ., ., ., 1, -4, -1
27. CCn1nc(NC(=O)C(C)C)c2cc3ccc(C)cc3nc21
→ ., 2, i, 3, -1, 2, -3, 14
28. CCn1c(SCC(N)=O)nnc1-c1ccc(OC)c(OC)c1
→ -1, -1, i, -8, -4, 8, -40, -10
29. CCOC(=O)CN1C(=O)C(O)=C(C(C)=O)C1c1ccc(F)cc1 (configuration not stated)
→ -2, 1, i, 19, -2, 3, ., -7
30. CCC(CC)C(=O)Nc1cccc(C(=O)NCCc2ccc(S(N)(=O)=O)cc2)c1
→ -14, 2, i, -8, 0, -1, -127, -5

Two compounds picked at random from those above:
The line under a structure holds: Yeast UUG start, MT1-MMP act inh RFP, Rce1 inhib, PABP FP inh, eIF4H inh, MT1-MMP act inh, Env fusion inh, CSC inhib
19. O=C(NCCC1CCCCN1S(=O)(=O)c1ccc(F)cc1)C(=O)NC1CC1 (configuration not stated)
→ 18, 1, i, ., ., -3, -3, -8
15. COCCCNC(=O)CCCN1C(=O)c2cccnc2Sc2ccccc21
→ 2, 8, i, 6, 3, 0, 11, 11

Next records follow:
The line under a structure holds: Yeast UUG start, MT1-MMP act inh RFP, Rce1 inhib, PABP FP inh, eIF4H inh, MT1-MMP act inh, Env fusion inh, CSC inhib
31. Cc1cc(C)c(NS(=O)(=O)c2ccc3c(c2)oc(=O)n3C)c(C)c1
→ -4, 3, ., ., ., 0, 6, .
32. CC1CCN(CCCn2c(=S)[nH]c3c(sc4ccc([N+](=O)[O-])cc43)c2=O)CC1
→ -23, 0, i, 35, 13, 3, 0, 12
33. O=C(COC(=O)c1cnccn1)Nc1ccc(Cl)cn1
→ ., 2, i, ., ., -3, -20, -17
34. CCOc1ccc(CCNC(=O)COC(=O)c2ccncc2)cc1OCC
→ -3, -1, ., ., ., 8, -11, 9
35. CC(Sc1ccccn1)C(=O)NC1CCCC1 (configuration not stated)
→ -8, 6, ., ., ., -5, ., 9
36. Cc1ccc(S(=O)(=O)N2CCOCC2)cc1NC(=O)COC(=O)C1(C)CC1(Cl)Cl (configuration not stated)
→ 5, -2, ., ., ., 2, ., -16
37. Cc1cc2c(cc(C(=O)OC(C(=O)NC3CCCCC3)C(C)C)n2C)o1 (configuration not stated)
→ -13, -28, ., ., ., -8, 6, 19
38. O=C(Nc1ccc(Cl)cn1)c1ccc2c(c1)OCCO2
→ -56, -3, i, -7, -8, 5, -114, -6
39. CCn1cc(C(=O)NCc2cccs2)c(=O)c2cc(S(=O)(=O)N3CCOCC3)ccc21
→ ., ., i, 12, -6, ., 10, -13
40. CCOC(=O)C1=C(C)N(CCCC(=O)O)C(=O)NC1c1cc2ccccc2c2ccccc12 (configuration not stated)
→ ., ., i, ., ., ., 4, -1
41. Cc1cc(NC(=O)CN2C(=O)NC3(CCCCC3)C2=O)no1
→ -16, 4, i, 4, -1, 1, 1, 5
42. CC(=O)c1ccccc1OCC(O)CN1CCN(c2ccccn2)CC1 (configuration not stated)
→ -11, 4, i, ., ., 6, 1, 13
43. Cc1ccc(Nc2nc(C(=O)N3CCC(C(=O)NC(C)C)CC3)cs2)cc1
→ -7, -1, i, 1, -8, -3, 4, -13
44. CCOC(=O)N1CCN(S(=O)(=O)c2ccc3c(c2)CCN3C(=O)CC)CC1
→ 8, -4, i, -1, 3, 4, 0, -4
45. CCOc1ccccc1CN1CCC(N2CCC(C(=O)NC3CC3)CC2)CC1
→ -12, 6, i, 4, -6, 4, 0, 5
46. O=c1c2c3nc4ccccc4nc3n(Cc3ccccc3)c2ncn1Cc1ccco1
→ -16, 3, ., 21, 11, -11, ., .
47. CCOC(=O)c1ccc(NC(=O)Nc2cc(C)cc(C)n2)cc1
→ ., ., i, -11, -15, ., -57, 10
48. O=C(COC(=O)/C=C/c1ccccc1)NCc1ccco1
→ 15, 8, ., ., ., 2, 24, .
49. CCOC(=O)c1sc(NC(=O)CSc2nnc(C(C)C)n2CC)nc1C
→ -5, 1, i, 2, -7, 1, -15, -10
50. CCN1CCCC1CNC(=O)c1cc(COc2ccc(C)c(C)c2)on1 (configuration not stated)
→ -17, -1, i, 2, 2, -2, -28, -11
51. Cc1ccc(-c2c(=O)n(O)c3ccccc3[n+]2[O-])cc1
→ -8, 4, i, 5, 12, 0, -12, 2
52. COc1c(OC(C)=O)ccc(/C=C/c2ccc3ccccc3n2)c1[N+](=O)[O-]
→ -26, -6, ., 4, -7, 3, ., 68
53. CCCOc1ccc(C(=O)Nc2ccc3c(c2)OCCO3)cc1
→ -18, -3, i, -7, -8, 3, -100, 17
54. CCOc1ccc(Nc2nc(Cc3nnc(SCC(=O)c4ccc(C)c(C)c4)o3)cs2)cc1
→ -18, -13, i, -5, 5, 1, ., 20
55. CCOC(=O)Cn1c(C)cc(=O)c2cccc(C)c21
→ 1, 3, i, 3, -4, -1, ., 2
56. CCOc1cc(S(=O)(=O)n2cc(-c3ccc(F)cc3)c(N)n2)cc(OCC)c1OCC
→ 32, -21, i, 2, -14, -6, ., -8
57. O=C1[C@@H]2[C@H](C(=O)N1Cc1ccco1)[C@H]1C=C[C@@H]2C1
→ -15, 8, i, -4, 5, 4, -37, -8
58. CCC1=NNc2cccc3c(OC)ccc1c23
→ ., ., i, ?, ?, ., ., .
59. Cc1cc(C)n(CCc2nc(-c3ccc(C)o3)cs2)n1
→ -15, -2, i, 14, 20, -2, ., -12
60. CCCNC(=O)C1CC(=O)N(c2ccc(OCC(=O)Nc3cccc(C)c3C)cc2)C1 (configuration not stated)
→ -8, 2, i, -11, 3, 0, 6, -1
61. CC1CN(C(=O)CCC(=O)N2CCCCC2)c2cc(Cl)ccc2O1 (configuration not stated)
→ 4, 3, i, -5, 4, 0, 2, -1
62. CC1CCCC(C)N1C(=O)COC(=O)c1cc(F)c(F)cc1Cl (configuration not stated)
→ -4, 1, ., ., ., -1, ., 0

A different layout for 2 compounds above.
cpd	Molecule	Yeast UUG start	MT1-MMP act inh RFP	Rce1 inhib	PABP FP inh	eIF4H inh	MT1-MMP act inh	Env fusion inh	CSC inhib
48	O=C(COC(=O)/C=C/c1ccccc1)NCc1ccco1	15	8	.	.	.	2	24	.
59	Cc1cc(C)n(CCc2nc(-c3ccc(C)o3)cs2)n1	-15	-2	i	14	20	-2	.	-12

Three entries already listed, arranged by formula weight, smallest number first.
The line under a structure holds: Yeast UUG start, MT1-MMP act inh RFP, Rce1 inhib, PABP FP inh, eIF4H inh, MT1-MMP act inh, Env fusion inh, CSC inhib
59. Cc1cc(C)n(CCc2nc(-c3ccc(C)o3)cs2)n1
→ -15, -2, i, 14, 20, -2, ., -12
53. CCCOc1ccc(C(=O)Nc2ccc3c(c2)OCCO3)cc1
→ -18, -3, i, -7, -8, 3, -100, 17
56. CCOc1cc(S(=O)(=O)n2cc(-c3ccc(F)cc3)c(N)n2)cc(OCC)c1OCC
→ 32, -21, i, 2, -14, -6, ., -8

Individual results from the results shown.
`CCOc1ccccc1CN1CCC(N2CCC(C(=O)NC3CC3)CC2)CC1` | eIF4H inh: -6
`CC(Sc1ccccn1)C(=O)NC1CCCC1` (configuration not stated) | CSC inhib: 9
`CC(=O)c1ccccc1OCC(O)CN1CCN(c2ccccn2)CC1` (configuration not stated) | Env fusion inh: 1
`CCCNC(=O)C1CC(=O)N(c2ccc(OCC(=O)Nc3cccc(C)c3C)cc2)C1` (configuration not stated) | MT1-MMP act inh: 0
